Vaccinia inh – Vaccinia orthopox stage-specific inhibition | activity change (mCherry), % (test concentration not listed) | 0.01% of 89,000 active | Vaccinia-infected cells, mCherry/Venus stage reporter fluorescence; active compounds read low; some inactives read as strong as hits;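 active = mCherry past -33% and 40 or more points under the early reporter, replicates agreeing; inconclusive = past -33% without that gap or agreement; tested in A549 cells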;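 also: scaled between vehicle wells and reference inhibitor wells; 23 nL library stock went into each well; one replicate is shown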
Vaccinia inh Venus – recorded beside Vaccinia inh, whose call it bears; activity change (Venus), %; measured here: Venus reporter, other viral stage;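 negative = less Venus signal; first of two replicates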
Numbers without * were called inactive; ? = inconclusive; nt = not tested or not shown; & = joins results of further samples.

Each structure is followed by: Vaccinia inh	Vaccinia inh Venus
> C[C@H]1CN([C@@H](C)CO)C(=O)c2cccc(NC(=O)Nc3ccc4c(c3)OCO4)c2O[C@@H]1CN(C)S(=O)(=O)c1cccs1
→ 10.8	5.0
> CCN1C[C@@H](C)[C@H](OC)CN(C)C(=O)c2cc(NC(=O)c3ccno3)ccc2OC[C@H]1C
→ 5.7	8.6
> COc1ccc2c3c([nH]c2c1)[C@H](CO)N(C(=O)Nc1ccc(F)cc1)CC31CCN(S(=O)(=O)c2cn(C)cn2)CC1
→ 10.8	4.6
> C[C@H](CO)N1C[C@H](C)[C@H](CN(C)S(=O)(=O)c2cn(C)cn2)OCCCC[C@H](C)Oc2ccc(N(C)C)cc2C1=O
→ 3.6	6.1
> C[C@H]1CN([C@@H](C)CO)C(=O)c2cc(NC(=O)Nc3ccc(F)cc3)ccc2O[C@@H]1CN(C)S(=O)(=O)c1cn(C)cn1
→ 2.5	10.9
> C[C@@H]1CN([C@@H](C)CO)C(=O)c2cc(-c3cccnc3)cnc2O[C@@H]1CN(C)C(=O)C1CCC1
→ 18.9	9.6
> C[C@@H]1CN([C@H](C)CO)C(=O)Cc2cc(NS(=O)(=O)c3ccccc3)ccc2O[C@H]1CN(C)Cc1ccc2c(c1)OCO2
→ -8.5	-1.6
> COc1ccc2c3c([nH]c2c1)[C@@H](CO)N(S(C)(=O)=O)CC31CN(C(=O)c2cccnc2)C1
→ 9.3	2.3
> C[C@H](CO)N1C[C@H](C)[C@@H](CN(C)C(=O)Nc2ccc(F)cc2)Oc2ccc(NS(=O)(=O)c3cccs3)cc2C1=O
→ 9.0	4.8
> O=C(C[C@@H]1CC[C@H]2[C@@H](COC[C@H](O)CN2C(=O)c2cccnc2)O1)NCc1ccc(-c2ccccc2)cc1
→ 4.9	6.5

Next section; it opens with the three that closed the last part.
Each structure is followed by: Vaccinia inh	Vaccinia inh Venus
> COc1ccc2c3c([nH]c2c1)[C@@H](CO)N(S(C)(=O)=O)CC31CN(C(=O)c2cccnc2)C1
→ 9.3	2.3
> C[C@H](CO)N1C[C@H](C)[C@@H](CN(C)C(=O)Nc2ccc(F)cc2)Oc2ccc(NS(=O)(=O)c3cccs3)cc2C1=O
→ 9.0	4.8
> O=C(C[C@@H]1CC[C@H]2[C@@H](COC[C@H](O)CN2C(=O)c2cccnc2)O1)NCc1ccc(-c2ccccc2)cc1
→ 4.9	6.5
> N#C[C@@H]1[C@H](c2ccccc2)[C@@H](CO)N1C(=O)C1CCCC1
→ 11.8	13.4
> Cc1noc(C)c1S(=O)(=O)N(C)C[C@@H]1OCCCC[C@H](C)Oc2ccc(NC(=O)C3CCCCC3)cc2C(=O)N([C@@H](C)CO)C[C@@H]1C
→ ?	nt
> C[C@H]1CN([C@@H](C)CO)C(=O)CCCn2cc(nn2)CO[C@H]1CN(C)C(=O)OCc1ccccc1
→ 13.2	12.3
> C[C@H](NC(=O)C[C@@H]1CC[C@H]2[C@@H](COC[C@@H](O)CN2C)O1)c1ccccc1
→ 10.9	9.7
> C[C@H]1CN([C@@H](C)CO)S(=O)(=O)c2ccc(-c3cncnc3)cc2O[C@H]1CN(C)C(=O)Cc1ccncc1
→ 13.0	11.7
> CN1C(=O)c2cc(NC(=O)c3cnccn3)ccc2OC[C@@H]2O[C@H](CC(=O)NCC3CCCCC3)CC[C@@H]21
→ -33.2	-24.4
> O=C(C[C@@H]1CC[C@@H](NC(=O)C2CCC2)[C@@H](CO)O1)NC1CCC1
→ -4.6	12.6
> O=C(C[C@@H]1CC[C@@H]2[C@H](COC[C@H](O)CN2S(=O)(=O)c2ccccc2)O1)Nc1ccc(-c2ccccc2)cc1
→ -22.9	-16.9
> COCC(=O)N(C)C[C@H]1Oc2ncc(C3=CCCC3)cc2C(=O)N([C@H](C)CO)C[C@H]1C
→ 6.8	4.2
> C[C@H](CO)N1C[C@H](C)[C@H](CN(C)C(=O)NC2CCCCC2)Oc2ccc(NC(=O)c3ccncc3)cc2C1=O
→ 10.3	7.5
> Cc1ccc(S(=O)(=O)N(C)C[C@H]2OCc3cn(nn3)CCCC(=O)N([C@H](C)CO)C[C@@H]2C)cc1
→ 9.9&9.1	13.8&9.4
> C[C@H](NC(=O)C[C@H]1CC[C@H](NC(=O)c2cccnc2)[C@H](CO)O1)c1ccccc1
→ 1.4	3.5
> C[C@H](CO)N1C[C@H](C)[C@H](CN(C)Cc2ccc(-c3ccccc3)cc2)Oc2c(NC(=O)c3nc4ccccc4s3)cccc2C1=O
→ -34.2	-29.4
> Cc1ccc(S(=O)(=O)N2CC[C@@H]3[C@@H](CO)Nc4ccc(-c5ccccc5F)cc4[C@@H]32)cc1
→ 11.3	4.1
> CC(=O)N1[C@@H]2c3ccc(-c4ccccc4F)c(=O)n3C[C@@H]2[C@@H](CO)[C@@H]1C(=O)NCC1CC1
→ -11.6	-4.8
> O=S(=O)(N[C@H]1CC[C@@H](CCn2cc(C3(O)CCCC3)nn2)O[C@H]1CO)c1ccccc1
→ 5.2	2.5
> CC(=O)N1[C@H](CO)[C@H](c2ccccc2)[C@@H]1CNC(=O)CN1CCOCC1
→ 12.8	13.5
> C[C@@H]1CCCCO[C@@H](CN(C)S(=O)(=O)c2ccc(F)cc2)[C@@H](C)CN([C@@H](C)CO)C(=O)c2cc(NC(=O)c3ccncc3)ccc2O1
→ 19.2	10.9
> COc1ccc2c3c([nH]c2c1)[C@@H](CO)N(C(=O)c1cccc(F)c1)CC31CN(C(=O)c2cccc(F)c2)C1
→ ?	nt
> CO[C@@H]1CN(C)C(=O)c2cc(NC(=O)Nc3ccccc3)ccc2OC[C@H](C)NC[C@H]1C
→ -5.5	3.1
> CO[C@@H]1CC[C@H]2CCOc3c(C#N)cccc3C(=O)N(C)CC3(CCCCC3)CC(=O)N(C)C[C@H]1O2
→ 20.0	17.0
> C[C@@H]1CN([C@H](C)CO)C(=O)c2cccc(NC(=O)Nc3cccc4ccccc34)c2O[C@H]1CN(C)S(=O)(=O)c1ccc(Cl)cc1
→ -7.7	-3.3
> O=C(C1CC1)N1CC(=O)N2[C@@H](CO)[C@@H](c3ccc(C#CCc4ccccc4)cc3)[C@@H]2C1
→ -1.6	2.0
> CC(C)NC(=O)N(C)C[C@@H]1Oc2ccc(NC(=O)NC3CCCCC3)cc2C(=O)N([C@H](C)CO)C[C@@H]1C
→ 0.6	4.6
> CN(C)C(=O)C[C@H]1CC[C@@H](NC(=O)NC2CCCC2)[C@@H](CO)O1
→ -2.9	17.5
> COc1cccc(S(=O)(=O)N[C@@H]2C=C[C@H](CC(=O)NC3CCC3)O[C@H]2CO)c1
→ 2.0	4.3
> C[C@@H]1CN([C@@H](C)CO)S(=O)(=O)c2ccc(/C=C/c3ccccc3)cc2O[C@H]1CN(C)C(=O)c1cccnc1
→ -30.3	-19.8
> O=C(C1=C[C@H](c2ccc(Br)cc2)C[C@H](OCCCCO)O1)N1CCOCC1
→ 13.1	8.4
> COc1ccc(C#Cc2ccc([C@@H]3[C@H]4CN(C(=O)c5ccccc5)CC(=O)N4[C@H]3CO)cc2)cc1
→ 11.5	11.7
> CC(C)NC(=O)Nc1ccc2c(c1)CC(=O)N([C@H](C)CO)C[C@H](C)[C@@H](CN(C)C(=O)Nc1ccc(F)cc1)O2
→ 7.2	10.1
> C[C@@H]1CN([C@H](C)CO)C(=O)c2cc(NS(=O)(=O)c3ccccc3)ccc2O[C@@H](C)CCCCO[C@@H]1CN(C)C(=O)C1CCCCC1
→ -33.5	-17.6
> C[C@@H]1CN([C@H](C)CO)S(=O)(=O)c2ccc(C#CC3CCCC3)cc2O[C@H]1CN(C)Cc1cccnc1
→ ?	nt
> C[C@@H]1CCCCO[C@H](CN(C)Cc2ccc(Cl)c(Cl)c2)[C@@H](C)CN([C@@H](C)CO)C(=O)c2cc(NC(=O)Nc3ccc(C(F)(F)F)cc3)ccc2O1
→ 1.0	6.6
> CO[C@@H](CN(C)Cc1nccs1)[C@@H](C)CN([C@@H](C)CO)S(=O)(=O)c1ccc(C)cc1
→ 8.2	5.8
> C[C@@H]1CN([C@H](C)CO)C(=O)c2cccc(NC(=O)CCCCCC(=O)Nc3ccccc3N)c2O[C@H]1CN(C)CC1CC1
→ ?	nt
> O=C1CNC[C@H]2[C@@H](c3ccc(C4=CCCC4)cc3)[C@@H](CO)N12
→ 14.7	10.5
> COC(=O)C[C@H]1CC[C@@H]2[C@H](COc3ccc(NC(=O)c4cccc(OC)c4)cc3C(=O)N2C)O1
→ 14.5	9.3
> COc1ccc(NC(=O)N(C)C[C@@H]2Oc3c(NC(=O)c4cnccn4)cccc3C(=O)N([C@@H](C)CO)C[C@@H]2C)cc1
→ 16.1	10.1
> COc1ccc2c3c([nH]c2c1)[C@H](CO)N(Cc1ccccc1)CC31CN(S(=O)(=O)c2ccc(C)cc2)C1
→ 7.8	5.7
> C[C@@H]1CN([C@H](C)CO)C(=O)Cc2cc(NC(=O)Cc3ccccc3)ccc2O[C@@H]1CN(C)Cc1ccc(-c2ccccc2)cc1
→ ?	nt
> C[C@@H]1CN([C@@H](C)CO)C(=O)CCCn2nncc2CO[C@H]1CN(C)C(=O)C1CCCCC1
→ 1.6&5.3	14.9&8.0
> CS(=O)(=O)Nc1ccc2c(c1)[C@H]1C[C@H](CC(=O)N3CCc4ccccc4C3)O[C@@H](CO)[C@H]1O2
→ 8.6	5.7
> C[C@@H]1CN([C@@H](C)CO)C(=O)c2cc(NC(=O)C3CC3)ccc2O[C@@H]1CN(C)Cc1ccncc1
→ 13.5	7.6
> CCC(=O)N1CC2(CN(C(=O)Cc3ccccc3)C2)c2c(n(C)c3cc(OC)ccc23)[C@@H]1CO
→ 2.3	-0.8
> COc1ccc(S(=O)(=O)N(C)C[C@H]2Oc3ccc(NC(=O)Cc4cn(C)c5ccccc45)cc3CC(=O)N([C@H](C)CO)C[C@@H]2C)cc1
→ -1.6	-4.2
> CN1c2ccc(-c3ccc(C#N)cc3)cc2[C@H]2[C@H](CCN2C(=O)c2cccc(F)c2)[C@@H]1CO
→ ?	nt
> CCCc1cn(CC[C@H]2CC[C@H](NC(=O)Nc3ccc4c(c3)OCO4)[C@@H](CO)O2)nn1
→ 10.7	-1.6
> Cc1cc(C(=O)Nc2cccc3c2O[C@@H](CN(C)Cc2ccc(C(F)(F)F)cc2)[C@H](C)CN([C@@H](C)CO)C3=O)n(C)n1
→ -23.6	-23.3
> C[C@@H]1CCCCO[C@H](CN(C)Cc2ccc(C(=O)O)cc2)[C@@H](C)CN([C@@H](C)CO)C(=O)c2cc(NS(=O)(=O)c3cccs3)ccc2O1
→ 23.0	14.1
> CC(C)CC#Cc1cnc2c(c1)C(=O)N([C@@H](C)CO)C[C@@H](C)[C@@H](CN(C)C(=O)Cc1ccncc1)O2
→ -34.6	-22.8

(next part)
Each structure is followed by: Vaccinia inh	Vaccinia inh Venus
> O=C(C1CC1)N1C[C@@H]2[C@H](c3ccccc31)[C@H](CO)N2C(=O)c1ccccc1
→ 9.6	4.2
> CCCC(=O)Nc1ccc2c(c1)C(=O)N(C)C[C@@H](OC)[C@H](C)CN(C(=O)c1ccccc1F)[C@@H](C)CO2
→ 18.1	19.9
> COc1ccc(NC(=O)N2[C@@H]3CNC[C@H]2C3c2ccc(/C=C/c3ccccc3)cc2)cc1 (stereo not given in full)
→ 3.2	2.4
> COc1ccccc1NC(=O)N1CCCCN2[C@H](C1)[C@@H](c1ccc(-c3cccc(F)c3)cc1)[C@@H]2CO
→ ?	nt
> CNC[C@H]1Oc2cc(C#Cc3cccnc3)ccc2S(=O)(=O)N([C@H](C)CO)C[C@@H]1C
→ 9.9	2.6
> CN1CCN(C(=O)C[C@H]2C=C[C@H](NC(=O)Nc3ccccc3F)[C@H](CO)O2)CC1
→ -7.1	0.9
> Cc1noc(C)c1NC(=O)N(C)C[C@@H]1Oc2c(NC(=O)C3CCOCC3)cccc2C(=O)N([C@H](C)CO)C[C@@H]1C
→ 10.4	12.8
> N#Cc1cccc(-c2ccc3c(c2)[C@H]2[C@H](CCN2Cc2ccc4c(c2)OCO4)[C@H](CO)N3)c1
→ ?	nt
> CC(C)CC#Cc1ccc2c(c1)O[C@@H](CN(C)C(=O)CN(C)C)[C@H](C)CN([C@H](C)CO)S2(=O)=O
→ ?	nt
> O=C(C[C@@H]1C[C@H]2c3cc(NS(=O)(=O)c4ccc(F)cc4)ccc3O[C@H]2[C@H](CO)O1)NCc1ccccc1
→ -21.5	-21.3
> CCCNC(=O)C[C@@H]1CC[C@H]2[C@@H](COC[C@H](O)CN2Cc2ccncc2)O1
→ 6.9	12.7
> COc1ccc(S(=O)(=O)Nc2ccc3c(c2)C(=O)N([C@H](C)CO)C[C@@H](C)[C@H](CN(C)CC2CC2)OCCCC[C@@H](C)O3)cc1
→ 2.7	20.7
> COc1cccc(C#Cc2ccc([C@@H]3[C@H]4CN(C(=O)C5CC5)CC(=O)N4[C@H]3CO)cc2)c1
→ -16.0	-6.8
> COc1cccc(NC(=O)N(C)C[C@@H]2Oc3cc(C#Cc4ccccc4)ccc3S(=O)(=O)N([C@H](C)CO)C[C@@H]2C)c1
→ -15.6	-7.0
> CCCNC(=O)N1CC2(CCN(C(=O)C3CCCC3)CC2)c2c([nH]c3cc(OC)ccc23)[C@@H]1CO
→ 7.8	2.8
> C[C@H](CO)N1C[C@H](C)[C@@H](CN(C)S(C)(=O)=O)Oc2cc(-c3ccncc3)ccc2S1(=O)=O
→ 9.4	3.9
> CN(C)C(=O)c1cccc(-c2ccccc2[C@@H]2[C@@H](CO)N(C(=O)C3CCC3)[C@H]2C#N)c1
→ 2.4	-4.5

Ordered by count of non-hydrogen atoms (rising): some entries from above.
Each structure is followed by: Vaccinia inh	Vaccinia inh Venus
> COc1cccc(C#Cc2ccc([C@@H]3[C@H]4CN(C(=O)C5CC5)CC(=O)N4[C@H]3CO)cc2)c1
→ -16.0	-6.8
> CCCNC(=O)N1CC2(CCN(C(=O)C3CCCC3)CC2)c2c([nH]c3cc(OC)ccc23)[C@@H]1CO
→ 7.8	2.8
> COc1ccc(S(=O)(=O)Nc2ccc3c(c2)C(=O)N([C@H](C)CO)C[C@@H](C)[C@H](CN(C)CC2CC2)OCCCC[C@@H](C)O3)cc1
→ 2.7	20.7

Source: PubChem BioAssay

These rows are one share of the data (hit frequency here may not be typical).
